Screening results deposited in PubChem by National Center for Advancing Translational Sciences (NCATS).
StopGo reporter: FMDV 2A StopGo reporter, luciferase signal; human cells with a luciferase reporter of 2A StopGo recoding; control for the full effect not named in the record; Potency, µM (top dose mostly 57.9 µM), without a hit: at the highest dose signal change, negative = less light; 410,000 compounds, 1.2% hits; AID 1159524; active = well fitted falling curve with a large enough effect; inconclusive = small, poorly fitted or top-dose-only effect; inactive = no such curve, though single readings can be large or run the other way; tested in HEK293T cells; also: % is scaled to controls: 0 for no effect and ±100 for the full control effect; nearly all actives have a fitted effect of over 45% in size; luciferase light after 4 h
Cruzain noTriton: cruzain (T. cruzi) inhibition without detergent. P25779. purified cruzain, Z-FR-AMC fluorescence, no detergent. Potency, µM, for inactives: max response, negative = inhibition, usual class: inhibitors. 200,000 compounds, 2.3% hits. AID 1476;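 also: plate controls were enzyme without inhibitor for no effect and buffer without enzyme for full effect; nearly all actives have a fitted effect of over 40% in size; top concentration of the series not given in the record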
Target sequence (P25779 123-467 limits assumed): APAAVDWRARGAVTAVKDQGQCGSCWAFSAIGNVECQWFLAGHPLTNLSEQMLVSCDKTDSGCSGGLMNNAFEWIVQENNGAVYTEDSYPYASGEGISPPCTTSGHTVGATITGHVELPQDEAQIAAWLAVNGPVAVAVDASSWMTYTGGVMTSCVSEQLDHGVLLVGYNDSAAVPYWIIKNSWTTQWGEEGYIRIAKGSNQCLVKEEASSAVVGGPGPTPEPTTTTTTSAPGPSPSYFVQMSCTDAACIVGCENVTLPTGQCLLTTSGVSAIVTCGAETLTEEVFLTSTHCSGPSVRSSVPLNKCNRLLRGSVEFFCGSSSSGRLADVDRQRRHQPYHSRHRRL
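Detergent-free condition (0.00005% Triton X-100) in acetate buffer pH 5.5 with DTT. 1.5 nM enzyme and compound were pre-mixed 15 min, then 2 uM Z-FR-AMC substrate added; reaction progress from fluorescence change between first and third reads (60 s).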
RE007 growth inh: less growth of the S. pombe RE007 Vpr strain | S. pombe RE007 Vpr strain, BacTiter-Glo ATP luminescence, 24 h; control for the full effect not named in the record | Potency, µM (highest dose often 92.2 µM), without a hit: at the highest dose activity change, negative = less growth | 360,000 compounds, 0.21% hits | AID 651644; active = well fitted falling curve with a large enough effect; inconclusive = small, poorly fitted or top-dose-only effect; inactive = no such curve, though single readings can be large or run the other way;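 also: % is scaled to controls: 0 for no effect and ±100 for the full control effect; nearly all actives have a fitted effect of over 50% in size; the assay follows cell death caused by Vpr and the record does not say whether a fall means rescue or toxicity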
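Fission yeast RE007 carrying one integrated HIV-1 vpr copy, seeded at OD 0.01 in PMG+AL medium with 23 nL pinned compound. Grown 24 h at 30 degrees; viability read by BacTiter-Glo luminescence after 5 min.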
Lassa entry inh: blocks Lassa virus binding to or entry into cells | Lassa virus pseudotype entry inhibition, cell reporter; control for the full effect not named in the record | Potency, µM (top dose mostly 37.9 µM), for the others: at the highest dose activity change, negative = inhibition, usual class: inhibitors | 300,000 compounds, 1.2% hits | AID 540256; active means well fitted inhibition curve with a large enough effect; inconclusive means small, poorly fitted or top-dose-only effect, or effect the other way; inactive means flat fitted curve, though single readings scatter; tested in HEK293 cells; also: % is scaled to controls: 0 for no effect and ±100 for the full control effect; nearly all actives have a fitted effect of over 50% in size; luciferase read-out
MARV entry inh: inhibitors of Marburg virus binding or cell entry; 300,000 compounds, 1.8% hits; Marburg virus pseudotyped entry inhibition, cell reporter; control for the full effect not named in the record; about a third of the inactives were read at about 46 µM; AID 540276; Potency, µM (series often up to 37.8 µM), without a hit: at the highest dose activity change, negative = inhibition, hits mostly inhibitors; active = well fitted inhibition curve with a large enough effect; inconclusive = small, poorly fitted or top-dose-only effect, or effect the other way; inactive = flat fitted curve, though single readings scatter; tested in HEK293 cells; about a fifth of its hits are not listed in these tables; also: % is scaled to controls: 0 for no effect and ±100 for the full control effect; luciferase read-out
Cruzain Triton: cruzain (T. cruzi) inhibition with detergent. AID 1478. Potency, µM, inactives show max response, negative = inhibition, most hits filed as inhibitors. purified cruzain, Z-FR-AMC fluorescence, 0.01% Triton. 200,000 compounds, 0.43% hits;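 also: plate controls were neutral wells for no effect and buffer without enzyme for full effect; nearly all actives have a fitted effect of over 40% in size; top concentration of the series not given in the record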
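Detergent-containing run (0.01% Triton X-100) in acetate buffer pH 5.5 with 5 mM DTT: enzyme at 1.5 nM final, 15 min compound preincubation at room temperature, then 2 uM Z-FR-AMC substrate. Activity taken as 60 s fluorescence increase at 360/450 nm.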
SARS PLP yeast: SARS-CoV PLP inhibition in yeast. S. cerevisiae expressing SARS-CoV PLpro, growth rescue; control for the full effect not named in the record. Potency, µM (titrated, usually from 32.9 µM), for the others: at the highest dose activity, positive = growth rescue. 330,000 compounds, 0.19% hits. AID 485353; active means well fitted rising curve with a large enough effect; inconclusive means small, poorly fitted or top-dose-only effect; inactive means no such curve, though single readings can be large or run the other way; also: 0% is about no effect; nearly all actives have a fitted effect of over 55% in size; growth read by luminescence after 48 h
NS1 function inh: blocks influenza NS1 protein function; Potency, µM (top dose mostly 46.1 µM), for the others: at the highest dose activity, positive = more growth; 270,000 compounds, 0.4% hits; S. cerevisiae slowed by influenza A NS1, growth recovery by OD600; AID 2326; active means well fitted rising curve with a large enough effect; inconclusive means small, poorly fitted or top-dose-only effect; inactive means no such curve, though single readings can be large or run the other way; also: nearly all actives have a fitted effect of over 50% in size
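In this qHTS, NS1 from influenza A is expressed in budding yeast, where it slows growth. Cells are switched from glucose to 2% galactose medium (pH 6.0, -URA), treated with compound, and growth recovery is read at OD600.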
* = called active by the depositor; ? = inconclusive; · = not tested or not shown; & = joins results of further samples; [ ] = dose if it differs, or a comment. Unless noted, calls follow the shape of the dose curve; as a rule, active = well fitted curve in the direction sought with a large enough effect; inconclusive = small, poorly fitted or top-dose-only effect, or another doubt; inactive = no such curve, though single readings can be large; an effect the other way counts as inactive or inconclusive. Potency is read from the fitted curve at half-maximal effect.

SMILES | StopGo reporter | Cruzain noTriton | RE007 growth inh | Lassa entry inh | MARV entry inh | Cruzain Triton | SARS PLP yeast | NS1 function inh
CCOc1ccc(CN(C)Cc2cc(=O)oc3c(C)c(C)ccc23)cc1OC | ? | · | -3% | ? | ? | · | · | ·
Cn1c(CCNC(=O)c2cccs2)n[nH]c1=S | -2% | 8% | -9% | -29% | -15% | -1.0% | ? | 13%
N/C(=N\OC(=O)Oc1ccccc1)c1ccc(Br)cc1 | -11% | -7% | -25% | 10% | -2%[46.1 µM] | 0.9% | 1% | -35%
CCn1c(CNC(=O)C2CCCCC2)cc2ccccc21 | -2% | · | 20% | -19%[46.1 µM] | 17%[46.1 µM] | · | -5% | ?
CCOC(=O)n1c(=O)oc2cc(S(=O)(=O)N3CCOCC3)ccc21 | 17% | 4% | -8% | -1% | -5% | 3.1% | -3% | -3%
O=C(CCC(=O)OCc1ccc([N+](=O)[O-])cc1)Nc1ccccc1Cl | 1% | · | 5% | -15% | ? | · | 0% | 2%
C=CCSc1nc2c(c(=O)[nH]c(=O)n2C)n1C/C=C(/C)Cl | -4% | -2% | 3% | -5% | ? | 0.4% | -4% | 3%
O=C1CC(c2ccccc2Oc2cccc(Cl)c2)C(n2cncn2)C(=O)C1C1NCCc2ccccc21 (stereo not given) | -17% | · | 8% | · | · | · | 4% | 18%
CCOC(=O)c1ccc(NC(=O)c2cc3c(n(-c4ccc(C)cc4)c2=O)CC(C)(C)CC3=O)cc1 | ? | 7% | · | -7%[46.1 µM] | 4%[46.1 µM] | -0.1% | · | ·
CC(C)NC(=O)COc1cccc2ccccc12 | -5% | · | 1% | · | -7%[46.1 µM] | · | -1% | -5%
CCN(Cc1ccccc1)C(=O)c1sc2nc3n(c(=O)c2c1C)CCCC3 | 8% | 0% | · | ? | · | -1.8% | · | ·
CCN(CC)C(=O)C12CC3CC(CC(Cl)(C3)C1)C2 | -27% | 3% | 0% | 4% | ? | 1.4% | -19% | 2%
CCC(=NCc1cc(OC)cc(OC)c1)c1c(O)[nH]c(=O)[nH]c1=O | -5% | · | 2% | · | · | · | 2% | -3%
CCOc1ccccc1NC(=O)C(=O)c1cc(C)n(-c2ccc(F)cc2)c1C | 55%[activator] | 16% | · | 3%[46.1 µM] | -4%[46.1 µM] | -7.4% | · | ·
Cc1[nH]c2ccc(C(=O)NCCCN3CCCC3)cc2c1C | -5% | · | -8% | · | · | · | 3% | 2%
CCN1CCN(C(=O)c2ccccc2NC(=O)c2ccc(Cl)cc2)CC1 | 1% | · | -6% | 1% | -1% | · | ? | -7%
O=C(/C=C/c1cccc(F)c1)NCCCn1ccnc1 | 20% | · | -1% | ? | 10% | · | -1% | 6%
O=C1NC(c2cccc(Br)c2)=N/C1=C\c1ccco1 | 0% | -22% | -9% | 4% | -20% | -10% | -18% | 22%
CN(CC(=O)Nc1ccccc1Br)C(=O)c1cccnc1Nc1cccc(C(F)(F)F)c1 | ? | · | -13% | ? | -20% | · | -21% | -76%
CCNc1nnc(-c2ccccc2OC)s1 | 17% | 7% | ? | 3% | 7% | -5.7% | -5% | -32%
NC(=S)n1[nH]c(-c2ccc([N+](=O)[O-])cc2)c(N=Nc2cccc(Cl)c2)c1=O | ? | · | 11% | ? | ? | · | 0% | ·
CCc1ccc(OCC(=O)N(Cc2ccc(Cl)cc2)C2CCS(=O)(=O)C2)cc1 (stereo not given) | -21% | ? | · | 3%[46.1 µM] | 0%[46.1 µM] | -9.1% | · | ·
CC(CCc1ccccc1)NC(=O)CN1CCN(c2ccccc2)CC1 (stereo not given) | -22% | · | -3% | -26%[46.1 µM] | 20%[46.1 µM] | · | 0% | 1%
Cc1ccc(N2CCN(S(=O)(=O)c3ccc4oc(=O)c5ncn(C)c5c4c3)CC2)c(C)c1 | -17% | -9% | · | 11%[46.1 µM] | · | -1.1% | · | ·
O=C(NCc1ccco1)c1ccc(COc2ccccc2Cl)cc1 | -13% | -10% | -14% | -19% | -3% | -8.3% | -16% | -6%
COCCCN1Cc2ccccc2C1=N | · | -7% | -16% | 2% | 5% | -7.0% | -8% | -2%
Cc1cc(C)cc(OCC(=O)N(Cc2ccc(N(C)C)cc2)C2CCS(=O)(=O)C2)c1 (stereo not given) | -19% | · | 24% | ? | ? | · | -1% | -2%
CCOC(=O)N1CCN(S(=O)(=O)c2ccc(C)c(C)c2C)CC1 | -21% | 6% | -16% | -1% | 4%[46.1 µM] | -2.4% | 11% | -13%
CCOC(=O)C1CCCN(C(=O)c2cccc(NC(=O)C(CC)CC)c2)C1 (stereo not given) | 12% | · | 18% | · | -1%[46.1 µM] | · | -1% | -1%
CCN(CC)C(=O)Cn1cc(C(=O)C(=O)NCC2COc3ccccc3O2)c2ccccc21 (stereo not given) | -5% | · | 5% | -6% | -4% | · | 0% | ·
COc1cccc(Nc2nc(-c3cccc(N4C(=O)c5ccccc5C4=O)c3)cs2)c1 | 30% | 7.9µM* | 7% | ? | ? | 5.9% | 5% | ?
CCN(C(C)=O)c1ccc(Oc2nc(OC)cc(OC)n2)cc1 | -12% | · | -12% | -16% | 10%[46.1 µM] | · | -1% | ·
CCC1(C)Cc2nc3[nH]c(=S)n(-c4ccccc4C)c(=O)c3cc2CO1 (stereo not given) | ? | · | -16% | -13% | -4%[46.1 µM] | · | -1% | 1%
COc1ccc2c(c1)oc(=O)c1c3ccccc3[nH]c21 | 0% | · | -7% | · | · | · | -2% | -3%
COc1ccc(CCNC(=O)CCCCn2c(=O)c3ccccc3n(Cc3ccc(F)cc3Cl)c2=O)cc1OC | ? | -6% | · | -7%[46.1 µM] | 1%[46.1 µM] | -0.9% | · | ·
O=C(CSc1ccc(-c2ccncc2)nn1)c1ccc(Cl)cc1 | -27% | · | 20% | -3%[46.1 µM] | 7%[46.1 µM] | · | 1% | ·
CCOc1ccc(S(=O)(=O)NCCC(=O)NCC2(N3CCCCC3)CCCCC2)cc1 | -2% | · | 2% | -6% | ? | · | 4% | 4%
Nc1ccc(C(=O)c2cccs2)cc1[N+](=O)[O-] | 19% | · | 31% | · | · | · | -1% | -5%
COC(=O)c1ccc(C)c(NS(=O)(=O)c2ccc(OC)c(OC)c2)c1 | 82%[activator] | 4% | 23% | ? | 26% | 0.1% | 5% | -9%
COc1cc(/C=C(\C#N)c2nc3ccccc3[nH]2)ccc1OC(=O)c1ccco1 | -9% | -9% | -12% | 0% | ? | -3.6% | -13% | -3%
O=C(NCc1cccs1)C(=O)c1cn(CC(=O)N2CCCC2)c2ccccc12 | 12% | · | 3% | 7% | 17% | · | 2% | ·
O=C(Nc1cc(Cl)ccc1N1CCOCC1)c1ccc(N2CCCC2=O)cc1 | ? | · | -13% | -2% | ? | · | 0% | ·
CN1CCc2c(sc3nc(SCC(=O)N4CCCCC4)n(-c4ccccc4)c(=O)c23)C1 | -8% | · | -8% | · | · | · | -1% | 25%
COc1cc(OC)c(NC(=O)CNC(=O)Cn2ccc3ccccc3c2=O)cc1Cl | 6% | · | -9% | 0% | 1%[46.1 µM] | · | 4% | 4%
Cc1cccc(C)c1NC(=O)C[N+](C)(C)C | -26% | 10%&3% | · | · | -1%&-1%&-1%&-1% | 6.8%&1.6% | · | -6%
CN1C(=O)NC(c2ccccc2)C2=C1CN(CCc1ccccc1)C2=O (stereo not given) | 10% | 7% | -16% | 8% | -2% | 0.7% | 3% | -9%
COc1ccc(C(=O)Oc2cccc(Nc3ncnc4ccccc34)c2)cc1OC | 20µM* | 5% | -4% | ? | ? | -13% | -15% | -15%
COc1ccc2nc(C)c(C(=O)NN)cc2c1 | 0% | 7% | · | -4% | -6% | -4.7% | 5% | ?
NC(=S)NN=C(c1ccccc1)c1ccccc1 | -4% | · | -9% | · | · | · | 2% | -2%
CC(=O)Nc1ccccc1-c1nc2ccccc2nc1OCC(=O)c1ccc2ccccc2c1 | · | -5% | -15% | -23% | ? | -2.4% | 7% | 4%
Later entries:
SMILES | StopGo reporter | Cruzain noTriton | RE007 growth inh | Lassa entry inh | MARV entry inh | Cruzain Triton | SARS PLP yeast | NS1 function inh
Cc1ccc(NS(=O)(=O)c2ccc(Br)s2)nc1 | 36%[activator] | · | 12% | -8% | -1%[46.1 µM] | · | 4% | -1%
COc1cccc(NC(=O)C(c2ccccc2)N2CCCCC2)c1 (stereo not given) | -20% | · | -23% | 7% | -1%[46.1 µM] | · | -3% | 0%
O=C(Nc1cccc(Cl)c1)c1cccc(Oc2ccc([N+](=O)[O-])cc2Cl)c1 | ? | ? | 3% | -6% | -29% | -3.8% | -17% | 0%
COCc1nc2oc3ccc(C)cc3c(=O)c2cc1C(=O)OC | -10% | · | -15% | ? | ? | · | 0% | 5%
O=C(O)CC(NC(=O)COc1ccc(Cl)cc1Cl)C(=O)O (stereo not given) | 10% | 0% | 7% | -2% | 1% | 3.4% | 8% | 13%
Nc1nnc(CSCc2ccccc2Cl)s1 | -8% | · | -1% | 3%[46.1 µM] | 20%[46.1 µM] | · | 1% | 3%

Whole records, looked up by structure. Values in the order: StopGo reporter | Cruzain noTriton | RE007 growth inh | Lassa entry inh | MARV entry inh | Cruzain Triton | SARS PLP yeast | NS1 function inh
COc1cccc(NC(=O)C(c2ccccc2)N2CCCCC2)c1 (stereo not given) in the list: -20% | · | -23% | 7% | -1%[46.1 µM] | · | -3% | 0%
COCc1nc2oc3ccc(C)cc3c(=O)c2cc1C(=O)OC in the list: -10% | · | -15% | ? | ? | · | 0% | 5%
O=C(O)CC(NC(=O)COc1ccc(Cl)cc1Cl)C(=O)O (stereo not given) in the list: 10% | 0% | 7% | -2% | 1% | 3.4% | 8% | 13%
Nc1nnc(CSCc2ccccc2Cl)s1 in the list: -8% | · | -1% | 3%[46.1 µM] | 20%[46.1 µM] | · | 1% | 3%
